Source: PubChem BioAssay
PINK1 modulator – PINK1 expression modulation | PINK1 immunofluorescence, high-content cytometry, 24 h | 410,000 tested, 0.2% active | Potency, µM (highest dose often 76.6 µM), inactives show at the top dose activation (PINK1 increase), usual class: activators; active = well fitted activation curve with a large enough effect; inconclusive = small, poorly fitted or top-dose-only effect; inactive = flat fitted curve, though single readings scatter; cell line not stated here;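 further: potency means the concentration at half of the fitted maximal effect; % of control where 0% means no effect; nearly all actives have a fitted effect of over 65% in size; a mitochondrial uncoupler was the plate control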
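PINK1 protein level read as immunofluorescence by microplate cytometer in a fixed, stained stable cell line after 24 h exposure to five compound concentrations, with CCCP as control.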
CtBP-E1A inh – CtBP/E1A binding inhibition | AlphaScreen GST-E1A/His-CtBP binding, 1536-well; active compounds read low; control for the full effect not named in the record | 340,000 tested, 0.49% active | AID 651724 | activity change, % (test concentration not listed); in the data active means activity change below about -65%; inconclusive means about -30% to -65%; inactive means above about -30%; further: on the % scale 0 is the no-effect control and ±100 the full control effect
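AlphaScreen with 125 nM GST-E1A and 125 nM His-CtBP (5X stocks) in Tris pH 8.0, 300 mM NaCl, BSA, Tween 20, TCEP. Compounds preincubated 2 h at 37 deg C, then glutathione donor/nickel acceptor beads added for 1 h at 37 deg C in dark.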
D2 potentiator – positive allosteric modulators of human D2 dopamine receptor. potentiation, % (test concentration not listed). P14416. DiscoveRx D2 beta-arrestin cells, luminescence, 90 min; 100% = 57 uM dopamine signal. 360,000 tested, 0.23% active. AID 624464; active = potentiation of 50% or more; inconclusive = 30% to 50%; inactive = 30% or less;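 further: compound concentration not given in the record; tested on top of an EC20 dose of dopamine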
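PathHunter beta-arrestin assay in DiscoveRx D2 cells. Compounds were added with an EC20 of dopamine (50 nM final) for 90 min at 37 deg C. Luminescence was read 1 h after detection reagent, with 57 uM dopamine as the EC100 control.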
TRPML1 ag – human mucolipin-1 channel agonism. 410,000 tested, 0.12% active. TRPML1-expressing cells, Ca2+ dye fluorescence, FDSS; host cell line not named in the record; reference of the full effect not given here. activation, % (concentration not given with the values). Q9GZU1; in the data active = activation above about 50%; inconclusive = about 30% to 50%; inactive = below about 30%; further: 0% is about no effect; the text of the record puts the active cut at 80%
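In this qHTS format, compounds were pin-transferred onto Ca8-dye-loaded TRPML1-DL cells induced with Tet overnight, and intracellular Ca2+ fluorescence was recorded kinetically for 110 s after a 10 s baseline. A subsequent 4uM final 54-4 (EC80) addition followed by a second 110 s read served as the antagonist phase.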
D2 agonist – human D2 receptor agonism in beta-arrestin assay; P14416; DiscoveRx PathHunter D2 beta-arrestin, luminescence, 90 min; 100% = 57 uM dopamine signal; activation, % (no concentration beside the values); 360,000 tested, 0.084% active; AID 624465; in the data active = activation above about 40%; inconclusive = about 15% to 40%; inactive = below about 15%; further: compound concentration not given in the record; the text of the record calls up to 30% inactive
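Agonist mode: compounds alone added to overnight-plated D2 PathHunter cells for 90 min at 37 C, with 57 uM final dopamine (EC100) defining full response. Beta-arrestin recruitment detected by chemiluminescent reagent, read after 1 h at ambient temperature.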
Six1-Eya2 blk – blocks human Six1 binding to Eya2; Q15475+O00167; AlphaScreen GST-Six1/His-Eya2 binding, biochemical; active compounds read low; control for the full effect not named in the record; activity change, % (no concentration beside the values); 360,000 tested, 0.56% active; AID 651725; in the data active = activity change below about -65%; inconclusive = about -30% to -65%; inactive = above about -30%; further: on the % scale 0 is the no-effect control and ±100 the full control effect
Target sequence (O00167 whole entry, looked up): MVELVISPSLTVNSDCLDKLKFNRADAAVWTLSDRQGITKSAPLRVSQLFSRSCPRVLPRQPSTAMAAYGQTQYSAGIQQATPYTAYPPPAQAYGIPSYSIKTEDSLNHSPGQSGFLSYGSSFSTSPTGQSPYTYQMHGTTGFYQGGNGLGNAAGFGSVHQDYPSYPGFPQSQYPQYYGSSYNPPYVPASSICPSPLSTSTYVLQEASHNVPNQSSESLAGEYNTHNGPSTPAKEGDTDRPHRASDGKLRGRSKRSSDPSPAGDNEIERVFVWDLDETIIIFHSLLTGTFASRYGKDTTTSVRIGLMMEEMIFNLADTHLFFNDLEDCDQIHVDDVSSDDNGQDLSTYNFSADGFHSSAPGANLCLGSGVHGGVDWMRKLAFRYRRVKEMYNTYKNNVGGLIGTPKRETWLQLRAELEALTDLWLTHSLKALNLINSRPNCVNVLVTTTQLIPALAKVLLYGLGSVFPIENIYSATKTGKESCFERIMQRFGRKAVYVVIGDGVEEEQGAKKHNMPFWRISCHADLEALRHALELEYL
Target sequence (Q15475 whole entry, looked up): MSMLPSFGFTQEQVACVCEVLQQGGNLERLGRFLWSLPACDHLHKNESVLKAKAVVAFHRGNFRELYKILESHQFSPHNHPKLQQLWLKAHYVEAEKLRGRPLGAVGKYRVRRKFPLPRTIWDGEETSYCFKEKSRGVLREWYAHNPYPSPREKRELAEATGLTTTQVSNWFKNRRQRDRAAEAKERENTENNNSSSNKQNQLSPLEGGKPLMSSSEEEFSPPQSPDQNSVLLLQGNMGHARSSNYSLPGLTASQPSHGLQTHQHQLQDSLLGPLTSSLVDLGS
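GST-Six1 + His-Eya2 (5X stock: 250/500 nM); Tris pH 8.0, 300 mM NaCl, 0.05% BSA, 0.02% Tween 20; GSH donor/Ni acceptor beads; 1 h 37 °C dark; AlphaScreen readout.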
The depositor's hits bear a star; u = inconclusive; x = no result given; & = joins results of further samples; [ ] = another dose, or the depositor's remark.

SMILES	PINK1 modulator	CtBP-E1A inh	D2 potentiator	TRPML1 ag	D2 agonist	Six1-Eya2 blk
CCCCNC(=O)c1ccc(N2CCOCC2)c(NS(=O)(=O)c2ccc(OC)cc2)c1	-4.1%[38.3 µM]	2	-12	0.4	-2.9	2
Cc1nn(C)cc1C(C(=O)NC1CCCCC1)N(C(=O)Cn1nnc2ccccc21)c1ccc(F)cc1 (stereo not drawn)	1.5%[38.3 µM]	6	0	0.5	-2.5	3
Cc1ccccc1CSCC(=O)Nc1ccccc1-c1ccccc1	9.3%	26	-12	4.8	-6.5	46
O=C(CSc1ccccc1)Nc1cccc(NC(=O)c2ccco2)c1	-4.9%[38.3 µM]	-6	2	0.0	-2.0	-2
Cc1ccccc1NC(=O)Nc1nc(C2CCC(=O)N2)cs1 (stereo not drawn)	1.4%	4	-12	-0.3	-7.9	1
Cc1cc(=O)oc2ccc(OC(=O)c3cccc(S(=O)(=O)N4CCOCC4)c3)cc12	-0.3%	-7	0	5.2	-0.4	-9
OCC12COC(c3ccccc3)N1C(c1ccccc1)OC2 (stereo not drawn)	0.1%	-3	-4	0.0	1.2	8
O=C(Nc1ccc(Cl)cc1[N+](=O)[O-])c1ccc2c(c1)OCCO2	3.8%	1	-13	0.4	6.1	3
O=C(N/C(=C/c1cccc([N+](=O)[O-])c1)C(=O)N1CCCCCC1)c1cccs1	-3.1%	2	-13	1.4	-1.1	7
Nc1nc(CN2CCN(c3ccccn3)CC2)nc(Nc2ccc(F)cc2)n1	1.8%	-25	17	2.5	u	-14
C[C@H](NC(=O)c1cc2cc(Cl)ccc2n1C)C(=O)N1CCC(C(=O)O)CC1	-1.3%	-10	-10	0.1	-0.4	2
O=C(c1ccc(F)cc1)N1CCN(c2ccc([N+](=O)[O-])cc2-n2cccc2)CC1	1.9%	-27	-5	1.7	-2.0	u
CCN(CC)CCCNC(=O)c1nn(-c2cccc(OC)c2)c(=O)c2ccccc12	-2.0%	-1	-27	-0.2	-7.8	-8
O=C(CCCC(=O)NCCc1ccccc1)NCCc1ccccc1	2.5%	14	-5	0.0	-2.5	9
Cc1nn(CCC(=O)NNC(=S)Nc2ccc(F)cc2)c(C)c1Br	0.0%	-3	-28	0.4	0.1	3
COc1cccc(CNc2ccccc2O)c1OCc1ccccc1F	1.9%	u	6	0.3	u	u
CSCCC(NC=O)C(=O)NC(C)C(=O)O (stereo not drawn)	0.3%	2	-6	-0.5	-3.3	8
CCCCNC(=O)C[C@@H]1C[C@@]2(C(=O)OC)CCCCC=C2N(CCC2=CCCCC2)C1=O	1.3%	4	x	-1.0	x	-1
COCCCn1c(=NC(=O)c2ccccc2)c(C#N)cc2c(=O)n3cccc(C)c3nc21	2.8%	6	-9	-0.6	-8.5	3
COc1cc(NC(=O)c2cccs2)c(OC)cc1NC(=O)Nc1ccc(F)cc1	4.2%	-26	4	2.6	2.9	u
COc1ccc(/C=C(\C#N)C(=O)Nc2ccc3[nH]c(=O)[nH]c3c2)cc1	0.5%	-10	-5	0.3	-2.0	-7
CCn1nnnc1NC(=O)c1cccc(OC)c1	2.9%	-30	8	-0.3	-3.1	1
COCc1cc(C)nc2sc(C(=O)Nc3ccccc3Br)c(N)c12	15%	18	1	0.9	-3.8	2
Cc1ccc(N2C(=O)NC(NC(=O)C3CC3)(C(F)(F)F)C2=O)cc1 (stereo not drawn)	4.2%	-2	-6	-0.3	-8.0	3
CC(NCc1ccc(S(N)(=O)=O)cc1)C(=O)N1CCc2ccccc21 (stereo not drawn)	0.2%	3	-10	-0.3	-3.9	8
CCOc1ccc(N2CC(C(=O)NCCCN3CCOCC3)CC2=O)cc1 (stereo not drawn)	-0.2%	5	22	0.8	-0.6	3
CCN(CC)C(=O)CSCc1cnn(-c2ccccc2)c1-n1cccc1	3.3%	-1	7	2.3	0.2	-4
CN1CCN(c2nc(-c3ccccc3)cc(C(F)(F)F)n2)CC1	11%	-8	-36	0.4	-2.7	-12
CCOCCCn1c(SCC(=O)Nc2cccc(S(=O)(=O)NC3=NCCCCC3)c2)nc2ccccc2c1=O	-0.3%	1	-4	2.4	-0.3	1
O=Cc1ccc(-c2ccc(Cl)cc2Cl)[nH]1	-2.7%	x	-14	-0.5	4.5	2
CCOc1ccc(S(=O)(=O)N2CCCC(C(=O)Nc3ccccc3)C2)cc1 (stereo not drawn)	10%	23	-5	-1.4	-6.4	10
O=C(NC(Cc1ccccc1)C(=O)O)c1ccco1 (stereo not drawn)	0.3%	12	-6	0.4	1.1	30
Cc1ccc(N2C(=O)N(CC(=O)N3CCOCC3)C(=O)C2C)cc1 (stereo not drawn)	1.5%	-10	-6	-0.4	-2.8	1
CCN(CC)S(=O)(=O)c1cc(NC(=O)[C@@H](NC(N)=O)C(C)C)ccc1C	1.9%	-13	3	-1.0	-4.1	2
O=c1[nH]c(C2CCCN(S(=O)(=O)c3ccccc3)C2)nc2c1nnn2Cc1ccccc1Br (stereo not drawn)	0.1%&1.2%	x	-12	2.9&3.4	1.2	-10
O=C(Nc1ccc(N2CCN(c3ncccc3C(F)(F)F)CC2)nc1)c1cccs1	-1.3%	-10	3	0.2	11	-26
O=C(Cc1cccs1)Nc1ccc(S(=O)(=O)N2CCCCC2)cc1	6.8%	1	24	0.2	-1.5	-9
CCC(C(=O)OCC(=O)N(CC)c1c(N)n(Cc2ccccc2)c(=O)[nH]c1=O)c1ccccc1 (stereo not drawn)	1.1%	x	-4	-0.7	-4.9	-1
CC(C)[C@H](NC(=O)C1CCN(S(=O)(=O)c2ccccc2)CC1)C(=O)NCc1ccccc1	2.3%	-10	-14	0.5	-1.5	5
C=CCSc1nc2c(c(=O)[nH]c(=O)n2C)n1Cc1ccc(C)cc1	0.7%	8	-3	0.1	1.0	6
CC1CC(=S)Nc2ccccc2S1 (stereo not drawn)	-3.3%	-19	-34	2.1	-2.9	-2
O=C(NNC(=O)c1cccnc1)Nc1cccc(Cl)c1Cl	-1.0%	1	-2	0.1	-3.9	-8
CCOC(=O)c1cccc(OC(=O)CCNC(=O)c2ccc(Cl)cc2)c1	1.1%	2	-21	3.4	8.6	-10
Cc1ccc(NC(=O)C2CCCN2c2nn3c(=O)cc(C)nc3s2)cc1 (stereo not drawn)	0.7%	0	-2	-0.7	-1.0	19
C=CCn1c(C#N)c(N)sc1=N	-1.1%	9	-4	-0.6	0.5	1
O=C(O)CCSc1nnc(COc2ccc(Cl)cc2)n1-c1ccccc1	0.8%	3	2	0.1	1.5	2
Cc1ccc(C(=O)Nc2ccccc2C(=O)NC(Cc2c[nH]c3ccccc23)C(=O)O)cc1 (stereo not drawn)	-0.2%	0	0	1.6	0.4	9
CCOC(=O)N=Nc1c2ccccc2c2nc3no[nH]c3nc12	-2.4%	-4	9	0.9	u	-2
CCOC(=O)C1CCN(C2CCN(Cc3nc(-c4ccccc4)no3)CC2)CC1	0.7%	0	-6	-0.1	0.4	-4
CNC(=O)C1CC(=O)N(CCc2ccccc2)C(=Nc2ccc(OC)cc2)S1 (stereo not drawn)	1.6%	-18	-1	0.5	0.4	-8
Fc1nc(N2CCCC2)c(F)c(Oc2ccccc2Oc2c(F)c(F)nc(N3CCCC3)c2F)c1F	-2.0%	2	9	2.1	-1.5	4
C/C(=N\NC(=S)NC(C)C)c1ccc(Cl)s1	5.7%	4	-56	1.5	-12	-13
O=S(=O)(Cc1ccccc1)Nc1ccc(S(=O)(=O)N2CCCC2)cc1	-0.3%	13	-4	0.3	-1.2	0
CCCNC(=O)COC(=O)/C=C/c1cccc(F)c1	2.9%	2	-3	-0.2	3.4	-1
CCOC(=O)C1CCCN(C(=O)CCCn2nnnc2CN2CCC(C)CC2)C1 (stereo not drawn)	0.4%	-10	-12	-0.7	0.6	5
O=C1CC(C(=O)N2CCN(c3ccccn3)CC2)CN1Cc1ccccc1Cl (stereo not drawn)	-5.5%	-4	-11	0.3	4.5	1
Cc1c(C)n(CCCN(C)C)c2ncnc(Nc3ccccc3)c12	-0.5%	0	-15	x	-1.3	4
O=C(C[n+]1cccc(NC(=O)c2ccccc2)c1)c1cccc([N+](=O)[O-])c1	-0.2%	-15	-13	0.4	-6.6	-5
CCN(CC)CCNC(C(=O)Nc1cccc(C(C)=O)c1)c1ccccc1 (stereo not drawn)	2.4%	-2	-13	-0.5	-1.2	2
CCN(CC)CCCNc1nc(-c2ccccc2)nc2ccccc12	x	8	-21	1.3	-1.2	-6

Fetched by compound from the list above:
SMILES	PINK1 modulator	CtBP-E1A inh	D2 potentiator	TRPML1 ag	D2 agonist	Six1-Eya2 blk
O=S(=O)(Cc1ccccc1)Nc1ccc(S(=O)(=O)N2CCCC2)cc1	-0.3%	13	-4	0.3	-1.2	0
Cc1c(C)n(CCCN(C)C)c2ncnc(Nc3ccccc3)c12	-0.5%	0	-15	x	-1.3	4
CCOC(=O)C1CCN(C2CCN(Cc3nc(-c4ccccc4)no3)CC2)CC1	0.7%	0	-6	-0.1	0.4	-4
CNC(=O)C1CC(=O)N(CCc2ccccc2)C(=Nc2ccc(OC)cc2)S1 (stereo not drawn)	1.6%	-18	-1	0.5	0.4	-8
CCCNC(=O)COC(=O)/C=C/c1cccc(F)c1	2.9%	2	-3	-0.2	3.4	-1

Continuation:
SMILES	PINK1 modulator	CtBP-E1A inh	D2 potentiator	TRPML1 ag	D2 agonist	Six1-Eya2 blk
Cc1cccc(SCc2noc(C(=O)NCC3CCCO3)c2C(=O)O)c1 (stereo not drawn)	-0.2%	4	-11	-0.1	-3.1	2
COc1ccc(CN2CCN(Cc3csc(C(C)=O)c3)CC2CCO)c(C)c1C (stereo not drawn)	1.5%	2	-20	-0.5	0.3	3
O=C(NCc1cccs1)[C@@H]1CCCN1S(=O)(=O)c1ccccc1F	-0.6%	-1	-4	-0.6	-0.5	10
O=C(NCCCl)Nc1cccc(Br)c1	1.3%	-4	-4	0.8	-3.0	-2
CC(C)CC(=O)Nc1ccc(-c2cn3cccnc3n2)cc1	-2.3%	-20	1	0.2	2.1	-13
Cc1cc(C)c2c(n1)sc1c(=O)n(CC(=O)c3ccccc3)cnc12	15%	3	-4	-0.7	-5.9	-2
NNC(=O)c1csc(-c2ccc(C(F)(F)F)cc2Cl)n1	-1.4%	-13	-2	1.5	3.5	-1
COc1ccc(N2CCN(CC(O)COC(c3ccc(F)cc3)c3ccc(F)cc3)CC2)cc1 (stereo not drawn)	u	x	-12	1.0	-7.9	u
Cc1c(NC(=S)NC(=O)c2ccc(-c3ccc(Cl)cc3)o2)cccc1C(=O)O	2.3%	2	-3	-1.0	-2.5	0
O=[N+]([O-])c1ccc(N/N=C/c2ccccc2O)cc1	u	x	-28	-0.3	10	7
Clc1ccc(-c2cnc3n2CCCCC3)cc1	-1.0%	-7	-6	0.7	-1.9	-12
COCCNC(=O)COc1ccc(C)cc1C(=O)c1cc(C#N)c(=O)n(C2CC2)c1	1.7%	-2	2	0.1	-3.1	18
